Source: PubChem BioAssay (National Center for Advancing Translational Sciences (NCATS))
HPGD block = qHTS Assay for Inhibitors of HPGD (15-Hydroxyprostaglandin Dehydrogenase); 15-hydroxyprostaglandin dehydrogenase [NAD(+)] (Homo sapiens), P15428; purified HPGD, NADH fluorescence kinetic, PGE2 substrate; Potency, µM, for the others: at the top dose activity change, negative = inhibition, usual class: inhibitors; actives 4.3% (n = 150,000); AID 894, 2007; active = well fitted inhibition curve with a large enough effect (not every such curve was filed as active); inconclusive = small, poorly fitted or top-dose-only effect, or another doubt; inactive = no such curve, though single readings can be large or run the other way;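 also: top concentration of the series not given in the record; plate controls included wells without enzyme; inactives centre near -10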
Target sequence (P15428 whole entry, looked up): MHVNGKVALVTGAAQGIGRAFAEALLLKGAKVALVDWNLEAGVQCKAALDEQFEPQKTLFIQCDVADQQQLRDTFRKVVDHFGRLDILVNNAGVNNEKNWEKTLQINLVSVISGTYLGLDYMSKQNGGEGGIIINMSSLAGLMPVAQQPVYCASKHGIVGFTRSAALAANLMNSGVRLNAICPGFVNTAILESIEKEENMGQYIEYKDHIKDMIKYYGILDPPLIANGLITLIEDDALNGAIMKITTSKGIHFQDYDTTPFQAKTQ
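NADH formation kinetics: reaction with 30 uM PGE2 and 1 mM NAD+ (final), 20 nM enzyme, Tris-HCl pH 8 with Tween 20, after 15 min compound preincubation at room temperature. Fluorescence change, last versus first of five reads.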
* marks the source's active call; other numbers are inactive results. % is scaled to controls: 0 for no effect and ±100 for the full control effect; potency is read from the fitted curve at half-maximal effect.

Screening O=C1N/C(=C\c2ccc(O)cc2)C(=O)c2ccccc21 returned HPGD block inconclusive.
For O=C(Cn1nnc(-c2cccs2)n1)NCCc1ccccc1 the results were HPGD block -14%.
Screening COc1ccc(NC(=O)CSc2nncn2C)c([N+](=O)[O-])c1 returned HPGD block -3%.
`COc1ccccc1NC(=O)c1cc(S(=O)(=O)N2CCC3(CC2)OCCO3)ccc1F` gave HPGD block -25%.
CCC(=O)Nc1nc(-c2ccc3c(c2)OCCO3)cs1 was read as HPGD block -5%.
CCSC1(SCC)N=C(N)C2(C#N)C(c3ccc(F)cc3)C12C#N (configuration not stated) was read as HPGD block inconclusive.
For CC(NC(=S)Nc1ccccc1OC(F)F)C(C)(C)C (configuration not stated) the results were HPGD block -14%.
CN(C)Cc1cc(CN(C)C)c(O)c(CCc2ccccc2)n1 was read as HPGD block -9%.
`O=C(N/N=C/c1ccc(O)cc1)c1cccc(C(F)(F)F)c1` gave HPGD block -7%.
CCCCOc1ccc(Cl)cc1CSc1nnc(CC)n1N was read as HPGD block 1%.
Nc1ccc(C(=O)OCC(=O)N2c3ccccc3Sc3ccccc32)cc1[N+](=O)[O-] was read as HPGD block -8%.
For Cc1cc(C)n(-c2ccc(C(=O)NC3=NCCS3)cc2)n1 the results were HPGD block -23%.
For CCN1CCN(c2nc(SC)nc3sc4c(c23)CC(C)(C)OC4)CC1 the results were HPGD block inconclusive.
`CC(=O)OCC1CCCC2=C(C)C(=O)CCC21COC(C)=O` (configuration not stated) gave HPGD block 2%.
`Cc1cccc2cc(C3CC(c4ccco4)=NN3S(=O)(=O)c3ccccc3)c(Cl)nc12` (configuration not stated) gave HPGD block -10%.
For CCOC(=O)C(Cc1ccccc1)(NC(C)=O)C(=O)OCC the results were HPGD block 0%.
Screening C/C(CCc1ccccc1)=N\NC(=O)CC(=O)NCCc1ccccc1 returned HPGD block -8%.
`CCNC(=O)C/C(C)=N/NC(=O)C12CC3CC(CC(C3)C1)C2` gave HPGD block -13%.
Screening CN(C)c1ccc(N2C(=O)CC(Sc3ccccc3C(=O)O)C2=O)cc1 (configuration not stated) returned HPGD block -10%.
`CC12CCC(c3nnc(SCc4ccc(Cl)cc4)nc31)C2(C)C` (configuration not stated) gave HPGD block -20%.
For COc1ccc(NC(=S)N2CCC(c3nc4ccc(Cl)cc4[nH]3)CC2)c(OC)c1 the results were HPGD block -16%.
O=C(NCCN=C1NS(=O)(=O)c2ccccc21)c1ccc(S(=O)(=O)N2CCOCC2)cc1 was read as HPGD block -7%.
For Cc1nn(Cc2ccccc2)c(Cl)c1C(=O)NC(C)(C)C the results were HPGD block -7%.
`Cc1ccc(C(=O)NCCN(C)C)cc1C` gave HPGD block -5%.
For CN1CCCc2cc(C=O)ccc21 the results were HPGD block inconclusive.
`CCOC(=O)/C=c1\s/c(=C\c2ccccc2OC)c(=O)n1CC(=O)N1CCOCC1` gave HPGD block -19%.
Nc1c(N2CCCCC2)c(=O)[nH]c(=O)n1-c1ccccc1 was read as HPGD block -1%.
`CCC(=O)Nc1cccc(NC(=O)c2ccc3c(c2)OCO3)c1` gave HPGD block -2%.
Screening CCN1CCN(C(=O)CN(C)S(=O)(=O)c2ccc(OC)cc2)CC1 returned HPGD block -11%.
For COc1ccc(C)cc1Nc1nc(-c2c(C)[nH]c3ccccc23)cs1 the results were HPGD block -15%.
Screening Cc1cccc(-n2c(CCN3C(=O)c4ccccc4C3=O)nc3ccccc3c2=O)n1 returned HPGD block -17%.
Cc1cc(C)n2nc(Nc3ccccc3)cc2n1 was read as HPGD block -29%.
Screening N#Cc1c(NC(=O)CSCC(=O)O)sc2c1CCCC2 returned HPGD block -24%.
Oc1c(Br)cc(Br)c2cccnc12 was read as HPGD block -7%.
For CSc1cccc(NC(=O)C2CCCN(S(=O)(=O)c3ccc(F)cc3)C2)c1 (configuration not stated) the results were HPGD block -10%.
`Cc1nn(-c2ccccc2)c(N2CCCC2)c1/C=C1\N=C(c2ccccc2)OC1=O` gave HPGD block -10%.
COc1ccc(CCC(=O)Nc2cccc(S(=O)(=O)N(C)C)c2)cc1OC was read as HPGD block -8%.
Screening O=C(NCCN1C(=O)C2C3C=CC(C3)C2C1=O)Nc1ccccn1 (configuration not stated) returned HPGD block -5%.
For COc1ccc(CCNC(=O)C(C)Sc2ccc(C)cc2)cc1OC (configuration not stated) the results were HPGD block -7%.
Screening NCCC[C@H](N)CC(=O)N[C@H]1CNC(=O)[C@@H]([C@@H]2C[C@H](O)N=C(N)N2)NC(=O)/C(=C/NC(N)=O)NC(=O)[C@@H](CO)NC(=O)[C@@H](CO)NC1=O returned HPGD block 3%.
CC(C)(C)NCCOc1ccc(Br)cc1 was read as HPGD block -2%.
For COC(=O)c1cc2cc(NS(=O)(=O)c3ccc(C)cc3)ccc2s1 the results were HPGD block -15%.
For CCC(=O)NC(=S)Nc1ccc(NC(=O)c2ccc(C)c([N+](=O)[O-])c2)cc1 the results were HPGD block -13%.
`CCOc1ccccc1NC(=O)CSc1nc2cccnc2n1C` gave HPGD block -8%.
O=C(CN1CCC(n2nnc3cc(F)ccc32)CC1)Nc1ccc2c(c1)CCC2 was read as HPGD block -17%.
For N#Cc1ccc(NC(=O)COC(=O)C2Cc3ccccc3CN2C(=O)c2ccccc2)cc1 (configuration not stated) the results were HPGD block -12%.
Screening CCOC(=O)c1[nH]nc2c1C(=O)N(CC)C2=O returned HPGD block -5%.
O=C(CSc1nnc(COc2ccccc2)o1)NCCc1ccccc1 was read as HPGD block -5%.
`CC[C@]12CCCN3CCc4c(n(c5ccccc45)C(=O)C1)[C@H]32` gave HPGD block 4%.
Screening O=C(O)c1sccc1S(=O)(=O)Nc1ccccc1N1CCCCC1 returned HPGD block -8%.
For Cc1ccccc1NCC(=O)N/N=C/c1ccc([N+](=O)[O-])cc1 the results were HPGD block -8%.
For Cc1cccc2sc(N)nc12 the results were HPGD block 0%.
Cc1cc(Cl)ccc1OCCCC(=O)Nc1cccnc1 was read as HPGD block -20%.
Cc1nc(SCC(=O)Nc2cc(C)on2)c2c3c(sc2n1)CCCC3 was read as HPGD block -16%.
Screening COc1cc(C2CC(=O)Oc3cc4c(cc32)OCO4)cc(OC)c1OC (configuration not stated) returned HPGD block -6%.
`Cc1c(Cl)c(C(=O)NC2C3CC4CC(C3)CC2C4)nn1C` (configuration not stated) gave HPGD block 20µM*.
COc1cc2c(cc1NC(=O)C(C)N1CCN(S(=O)(=O)c3ccccc3[N+](=O)[O-])CC1)oc1ccccc12 (configuration not stated) was read as HPGD block -16%.
`Cc1ccc(-c2nnn(CC(=O)N(c3ccccc3)C(C(=O)NC(C)(C)C)c3cccs3)n2)o1` (configuration not stated) gave HPGD block -8%.
Screening CCOC(=O)C1=C(c2cccc(F)c2)NC(=S)NC1C (configuration not stated) returned HPGD block -3%.
`CC(CCO)Nc1nc2c(c(=O)n(C)c(=O)n2C)n1Cc1cccc(Br)c1` (configuration not stated) gave HPGD block -15%.

5 compounds picked at random from the list so far, as already listed:
Screening CCN1CCN(C(=O)CN(C)S(=O)(=O)c2ccc(OC)cc2)CC1 returned HPGD block -11%.
Screening C/C(CCc1ccccc1)=N\NC(=O)CC(=O)NCCc1ccccc1 returned HPGD block -8%.
`Cc1nn(-c2ccccc2)c(N2CCCC2)c1/C=C1\N=C(c2ccccc2)OC1=O` gave HPGD block -10%.
For O=C(Cn1nnc(-c2cccs2)n1)NCCc1ccccc1 the results were HPGD block -14%.
Screening NCCC[C@H](N)CC(=O)N[C@H]1CNC(=O)[C@@H]([C@@H]2C[C@H](O)N=C(N)N2)NC(=O)/C(=C/NC(N)=O)NC(=O)[C@@H](CO)NC(=O)[C@@H](CO)NC1=O returned HPGD block 3%.

The main list resumes, repeating the six entries before the break.
Screening COc1cc(C2CC(=O)Oc3cc4c(cc32)OCO4)cc(OC)c1OC (configuration not stated) returned HPGD block -6%.
`Cc1c(Cl)c(C(=O)NC2C3CC4CC(C3)CC2C4)nn1C` (configuration not stated) gave HPGD block 20µM*.
COc1cc2c(cc1NC(=O)C(C)N1CCN(S(=O)(=O)c3ccccc3[N+](=O)[O-])CC1)oc1ccccc12 (configuration not stated) was read as HPGD block -16%.
`Cc1ccc(-c2nnn(CC(=O)N(c3ccccc3)C(C(=O)NC(C)(C)C)c3cccs3)n2)o1` (configuration not stated) gave HPGD block -8%.
Screening CCOC(=O)C1=C(c2cccc(F)c2)NC(=S)NC1C (configuration not stated) returned HPGD block -3%.
`CC(CCO)Nc1nc2c(c(=O)n(C)c(=O)n2C)n1Cc1cccc(Br)c1` (configuration not stated) gave HPGD block -15%.
For CCCOc1ccccc1N1C(=O)CC(N2CCOCC2)C1=O (configuration not stated) the results were HPGD block -12%.
`COc1cccc(-c2nnc(-c3ccc(C(F)(F)F)cc3)o2)c1` gave HPGD block inconclusive.
`CCOC(=O)c1ccc(Nc2ccc(-c3ccc(OC)c(OC)c3)nn2)cc1` gave HPGD block -12%.
Screening Cc1ccc(C)c(N=C2CCCN2Cc2ccccc2)c1C#N returned HPGD block -5%.
COC(=O)c1c(NC(=S)Nc2ccc(CC(=O)O)cc2)sc(C)c1C was read as HPGD block -26%.
`Cc1c(Cl)cccc1N1C(=O)C(N2C(=O)c3cccc([N+](=O)[O-])c3C2=O)C1c1cccs1` (configuration not stated) gave HPGD block 0%.
COc1ccc(CNC(C)(C)C)cc1Cl was read as HPGD block 3%.
Screening CCCCOC(=O)Nc1ccccc1C(=O)OC returned HPGD block -14%.
O/N=C(\c1ccc(Cl)cc1Cl)c1ncc(C(F)(F)F)cc1Cl was read as HPGD block 25µM*.
CC1(C)OC(=O)C2(Cc3ccccc3N3CCCCC32)C(=O)O1 (configuration not stated) was read as HPGD block -9%.
Screening CC1(C)C(=O)N(OCc2ccccc2)C(C)(C)C(=O)N1OCc1ccccc1 returned HPGD block -7%.
O=C(CSc1nnc(C2CC2)n1Cc1ccccc1)N1CCN(S(=O)(=O)c2ccccc2)CC1 was read as HPGD block -13%.
Cc1cc(C(F)(F)F)c(C#N)c(=O)[nH]1 was read as HPGD block inconclusive.
Screening Cc1ccc(C(=O)C2CCN(CC(=O)Nc3ccc4c(c3)OCCO4)CC2)cc1 returned HPGD block -4%.
`N[C@@]12CCc3nonc3[C@]1(O)CC(c1ccccc1)=[N+]2[O-]` gave HPGD block -12%.
Screening CCOC(=O)/C(C#N)=C(C)/C=C1\Sc2ccccc2N1CC returned HPGD block 3%.
`CNC(=O)C1CCCN1S(=O)(=O)c1ccc(OC)cc1` (configuration not stated) gave HPGD block -8%.
Screening COc1ccc(CNC(=O)C(OC(=O)c2ccco2)c2ccc(OC)cc2)cc1 (configuration not stated) returned HPGD block -16%.
Clc1c(-c2nnc3n2CCC3)sc2ccccc12 was read as HPGD block 28µM*.
COc1ccc(N/C=C\C(=O)c2ccc3c(c2)OCO3)cc1OC was read as HPGD block -18%.
COc1ccc(/C=N/N=C2/NC(=O)C(CC(=O)O)S2)cc1OCc1ccc(Cl)cc1Cl (configuration not stated) was read as HPGD block -25%.
COC(=O)c1cc(COc2ccc3ccc(=O)oc3c2)c(C)o1 was read as HPGD block inconclusive.
For O=C(Cn1cc(C(=O)c2ccco2)c2ccccc21)Nc1ccccc1 the results were HPGD block -10%.
Screening Cc1nnc2ccc(N3CCN(c4ccccn4)CC3)nn12 returned HPGD block -6%.
Screening CCOC(=O)N1CCN(C(=O)c2ccc3c(=O)n(-c4ccc(OC)cc4OC)c(=S)[nH]c3c2)CC1 returned HPGD block -11%.
For COC(=O)c1nc2nc(-c3cccs3)cc(C(F)(F)F)n2n1 the results were HPGD block inconclusive.
Cc1ccc(N2C(=O)C3CC(c4ccccc4)=C4C5C=CC(C6C(=O)N(c7ccc(C)cc7C)C(=O)C56)C4C3C2=O)c(C)c1 (configuration not stated) was read as HPGD block -4%.
`COc1ccc(Cl)cc1NC(=O)CSc1nnc(COc2ccccc2)n1N` gave HPGD block -28%.
`COc1cc(-c2nn3c(C4CCCCC4)nnc3s2)cc(OC)c1OC` gave HPGD block inconclusive.
Screening CC(C)CCn1nnnc1C(c1ccc(N(C)C)cc1)N1CCN(C(=O)c2ccco2)CC1 (configuration not stated) returned HPGD block -1%.
`c1ccc(-c2csc(N3CCN(c4ccccn4)CC3)n2)cc1` gave HPGD block -14%.
`CC(C)(C)C1CCC(OC(=O)CN2CCOCC2)CC1` (configuration not stated) gave HPGD block 7%.
For Cc1c(NC(=O)COC(=O)c2cc(-c3cccc4ccccc34)nc3ccccc23)c(=O)n(-c2ccccc2)n1C the results were HPGD block inconclusive.
Screening Cc1ccc(CCNC(=O)CS(=O)Cc2nc(-c3cccc(C)c3)oc2C)cc1 (configuration not stated) returned HPGD block -9%.
O=[N+]([O-])c1ccc(N2CCNCC2)cc1NCc1cccnc1 was read as HPGD block -19%.
`Cc1ccc2[nH]c(=O)c(CN(Cc3nnnn3C3CCCC3)C3CCCCC3)cc2c1` gave HPGD block -10%.
NC(=O)CSc1nc2sc3c(c2c2ncnn12)CCCC3 was read as HPGD block -13%.
Screening CC1CCN(S(=O)(=O)c2ccc(NC(=O)CN3CCN(C)CC3)cc2)CC1 returned HPGD block 4%.
Screening CCN(CC)c1ccc(NC(=O)COc2ccccc2C)cc1S(=O)(=O)Nc1ccccc1OC returned HPGD block 28µM*.
For COc1ccc(-c2nnc(SCc3nnc(-c4ccccc4)o3)n2-c2ccccc2)cc1 the results were HPGD block 7.9µM*.
CCOC(=O)c1c(NC(=O)Cn2cnc3sc(C)c(-c4ccccc4)c3c2=O)sc(C)c1C was read as HPGD block inconclusive.
`CCOC(=O)c1[nH]c2ccccc2c1NC(=S)Nc1ccccc1C` gave HPGD block -21%.
For N=c1ccn(Cc2ccc(Cl)cc2)cc1 the results were HPGD block -12%.
For Brc1ccc(-c2nnc3sc(CNC4CCCC4)cn23)cc1 the results were HPGD block -8%.
For CC(C)On1c(SC(C)C)nc2ccccc2c1=O the results were HPGD block -2%.

These rows are one share of the data (hit frequency here may not be typical).
